Screening data: PubChem, National Center for Advancing Translational Sciences (NCATS)
VDR inh: inhibitors of human vitamin D receptor | P11473 | VDR-SRC2-3 peptide fluorescence polarization, 2 h | Potency, µM, without a hit: max response, negative = inhibition, hits mostly inhibitors | 0.93% of 400,000 active; active = well fitted inhibition curve with a large enough effect; inconclusive = small, poorly fitted or top-dose-only effect, or another doubt; inactive = no such curve, though single readings can be large or run the other way; note: series mostly up to about 120 µM
Target sequence (P11473 whole entry, looked up): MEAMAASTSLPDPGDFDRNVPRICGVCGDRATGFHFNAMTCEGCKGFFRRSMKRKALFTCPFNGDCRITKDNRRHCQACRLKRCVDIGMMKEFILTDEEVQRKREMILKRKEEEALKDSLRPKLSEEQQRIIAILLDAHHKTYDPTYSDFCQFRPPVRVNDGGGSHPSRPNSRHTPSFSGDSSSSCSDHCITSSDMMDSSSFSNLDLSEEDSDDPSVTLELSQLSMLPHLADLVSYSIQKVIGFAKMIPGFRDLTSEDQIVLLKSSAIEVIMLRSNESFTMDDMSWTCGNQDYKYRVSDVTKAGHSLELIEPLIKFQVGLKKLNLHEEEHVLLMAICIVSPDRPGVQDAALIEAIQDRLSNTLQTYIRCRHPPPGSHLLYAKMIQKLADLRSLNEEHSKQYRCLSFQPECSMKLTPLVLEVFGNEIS
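Two reagent solutions held at 4 deg C in the dark were dispensed, compounds pinned at 23 nl, and the mixture incubated 2 h at room temperature. Read-out: fluorescence polarization of VDR–SRC2-3 peptide binding.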
Active calls of the source: *; ? = inconclusive; & = joins results of further samples. % is set by controls: 0 for no effect and ±100 for the full control effect; potency is the fitted concentration of half-maximal effect. These rows are one share of the data, so the mix of outcomes need not match the whole.

No.	smiles	VDR inh
1	CN(C)c1ccnc(N(Cc2ccccc2)Cc2ccccc2)c1C#N	-18%
2	Cc1ccc(C(=O)NCCN2CCNC2=O)cc1	-3%
3	CC1=C/C(=N\N=C2\NC(=O)C(CC(=O)Nc3ccccc3F)S2)CC(C)(C)C1 (stereo not given)	3%
4	CC(C)COC(=O)/C(C#N)=C/c1cn(Cc2ccccc2)c2ccccc12	-1%
5	O=C(NNC(=O)C12CC3CC(CC(Cl)(C3)C1)C2)c1ccncc1	-8%
6	O=C(O)CC1(CC(=O)NCc2ccc(C(F)(F)F)cc2)CCCCC1	-22%
7	Cc1cc2c(c(SCC(=O)Nc3ccc(C)c(C)c3)n1)C(=O)OC2	10%
8	COc1cc(CN2CC(C)OC(C)C2)cc(OC)c1 (stereo not given)	14%
9	CC1(C)Cc2ccccc2C2=NNC(=O)C2=N1	11µM*
10	COc1ccc(NC(=O)Nc2cccc([N+](=O)[O-])c2)cc1Cl	-15%
11	O=C(CSc1nnc2c(Cl)cc(C(F)(F)F)cn12)NCc1ccc(F)cc1	-4%
12	Cn1ccc(NC(=O)c2ccc([N+](=O)[O-])cc2)n1	0%
13	COc1ccc(C(=O)/C=C/c2ccc(O)cc2)c(O)c1CC=C(C)C	-17%
14	CCOC(=O)/C=C/CN(C(=O)OC(C)(C)C)S(=O)(=O)N1CC=CC1	-15%&15%
15	CCCOC(=S)NC(=O)c1sc2ccccc2c1Cl	-15%
16	O=C(c1csnn1)N1CCC[C@@]2(CCN(C(c3ccccc3)c3ccccc3)C2)C1	?

Brought forward from above: four compounds; new compounds follow.
No.	smiles	VDR inh
13	COc1ccc(C(=O)/C=C/c2ccc(O)cc2)c(O)c1CC=C(C)C	-17%
14	CCOC(=O)/C=C/CN(C(=O)OC(C)(C)C)S(=O)(=O)N1CC=CC1	-15%&15%
15	CCCOC(=S)NC(=O)c1sc2ccccc2c1Cl	-15%
16	O=C(c1csnn1)N1CCC[C@@]2(CCN(C(c3ccccc3)c3ccccc3)C2)C1	?
17	Cc1cccc(C)c1N1CC(=O)N(c2c(C)cccc2C)CC1=O	-21%
18	O=c1[nH]c2c(c3c1CCCC3)CCCC2	16%
19	O=S(=O)(c1ccccc1)N1CCN(S(=O)(=O)c2ccccc2)c2ccccc21	-11%
20	COc1cc(C(=O)NNC(=O)c2cc(S(=O)(=O)N(C)C)ccc2N2CCCC2)cc(OC)c1OC	-9%
21	O=C(NCCCN1CCOCC1)c1ccc2c(c1)N(Cc1ccccc1F)C(=O)c1ccccc1S2=O (stereo not given)	11%
22	Cc1cccc(-n2nc(C)cc2N)c1	12%
23	COCCN(C(=O)COC(=O)c1sccc1C)c1c(N)n(Cc2ccccc2)c(=O)[nH]c1=O	-21%
24	Cc1cc(C)nc(Nc2n[nH]c(-c3cccc4ccccc34)n2)n1	-3%
25	Cc1nn(-c2ncc(C(F)(F)F)cc2Cl)c(=O)n1-c1ccccc1	1%
26	COc1ccc(CCNC(=O)Nc2ccc([N+](=O)[O-])cc2)cc1OC	-1%
27	Nc1nc(SCC(=O)N2N=C3/C(=C\c4ccco4)CCCC3C2c2ccco2)n[nH]1 (stereo not given)	1%
28	CC1Cc2cc(S(=O)(=O)NCCC(=O)NCc3ccc(F)cc3)ccc2N1C(=O)C1CC1 (stereo not given)	5%
29	CCOc1ccc(OCC)c(S(=O)(=O)NCc2ccccc2)c1	7%
30	CCCOC(=O)c1ccc(NC(=O)c2c(Cl)ccc(Cl)c2OC)cc1	-5%
31	COc1cc(NC(=O)COc2cccc3c2OC(C)(C)C3)cc(OC)c1OC	12%
32	Cc1ccc(C)c(NC(=O)CSc2nnc3n2CCCCC3)c1	14%
33	Cc1cc(-c2ccccc2)nc2cc(C(=O)Nc3ccc(Cl)c(Cl)c3)nn12	3%
34	CCCNC(=O)CS(=O)(=O)Cc1nc(-c2ccccc2C)oc1C	4%
35	O=C(CN1C(=O)c2ccccc2S1(=O)=O)NCc1cccs1	5%
36	COC(=O)c1cnn2c(C)c(Cc3c(C)cc(C)cc3C)c(C)nc12	9%
37	CC(=O)N(Cc1cccs1)Cc1cc2ccc(C)c(C)c2nc1Cl	-7%
38	COc1cc(C2C(C(=O)c3ccc(C)o3)=C(O)C(=O)N2Cc2ccccc2)ccc1O (stereo not given)	0%
39	CC(C)[C@H](NC(=O)C1CCN(S(=O)(=O)c2ccc(F)cc2)CC1)C(=O)N1CCCCCC1	-12%
40	CCc1ccc(NC(=O)Cn2ncc3c(C)n(Cc4cccc(Cl)c4)c(C)c3c2=O)cc1	1%
41	CC(C)N1CC(C(=O)Nc2ccc(Cl)c(Cl)c2)CC1=O (stereo not given)	14%
42	Cc1ccc(S(=O)(=O)Nc2nc(C)cc(N/N=C/c3ccc(O)cc3)n2)cc1	11%
43	c1ccc(-c2ccccc2-c2nc(-c3cccnc3)no2)cc1	-2%
44	CCOc1ccccc1Nc1nnc(SCC(=O)NC(=O)c2cccn2C)s1	7%
45	COc1ccc(S(=O)(=O)NC(Cc2ccccc2)C(=O)O)cc1 (stereo not given)	-8%
46	COc1cccc(N2CCN(C(=O)C3CCCN(S(=O)(=O)c4cccc5nsnc45)C3)CC2)c1 (stereo not given)	-7%
47	CC1Cc2ccccc2N1C(=O)COC(=O)c1ccc(O)cc1 (stereo not given)	10%
48	CN1CCN(CCC(=O)N/N=C/c2ccccn2)CC1	1%
49	CC(CC(=O)O)Nc1ccccc1O (stereo not given)	13%
50	COc1ccc(C2/C(=C(/O)c3ccc4c(c3)CC(C)O4)C(=O)C(=O)N2CCCn2ccnc2)cc1OC (stereo not given)	-2%
51	COc1ccc(NC(=O)CC2Nc3ccccc3NC2=O)c([N+](=O)[O-])c1 (stereo not given)	-9%
52	COC(=O)CN(C#N)c1nc(OC)nc(N(C)C)n1	7%
53	COc1ccc(S(=O)(=O)N2CCCCC2)cc1NC(=O)CN1CCN(C(C)=O)CC1	2%
54	Oc1ccc(/C=N/NC(=S)Nc2cccnc2)c(O)c1	-3%
55	Cc1noc(C)c1COC(=O)c1csc2c1CCC(C)C2 (stereo not given)	-9%
56	Cc1ccc2c(c1)N(Cc1cccc(F)c1)C(=O)C(C)O2 (stereo not given)	-3%
57	CC(CC(=O)Nc1nncs1)c1ccccc1 (stereo not given)	5%
58	COc1ccccc1C1CCN(Cc2cccc(C(=O)N3CCC(O)CC3)c2)CC1	-11%
59	C/C(=N\NC(=O)C(NC(=O)c1ccccc1)C(C)C)c1ccccc1 (stereo not given)	-1%
60	O=C1NCCN(Cc2cccc(Oc3ccccc3)c2)C1CC(=O)N1CCCCO1 (stereo not given)	5%
61	COc1ccc(NC(=O)CCCN2C(=O)C(c3ccccc3)Oc3cccnc32)cc1OC (stereo not given)	-5%&-11%
62	CC(=O)c1ccc(N=C2SCCCN2C(=O)C2CCCCC2)cc1	-1%
63	Cc1c(Cl)cccc1-n1ncc(C(=O)N2CCc3ccccc3C2)c1C1CCN(C(=O)OC(C)(C)C)CC1	1%
64	CCc1cn([C@H]2C[C@H](O)[C@@H](CO)O2)c(=O)[nH]c1=O	-16%
65	O=[N+]([O-])c1ccc(N2CCN(Cc3ccc([N+](=O)[O-])o3)CC2)cc1	-10%
66	COc1ccc(CC(=O)N2CCc3cc(OC)c(OC)cc3C2)cc1	-3%
67	O=C(NCc1ccc2c(c1)OCO2)c1cccc(C(=O)NCc2ccc3c(c2)OCO3)c1	12%
68	CCCOc1ccc(C(=O)Nc2sc3c(c2C(=O)OCC)CCCCC3)cc1	-18%
69	CCOC(=O)N1CCN(c2cc(N3CCOCC3)c(F)cc2[N+](=O)[O-])CC1	0%
70	C/C(CC(=O)NCc1ccco1)=N\NC(=O)Cc1ccc(-c2ccccc2)cc1	-15%
71	O=C(NC(=S)Nc1sc2c(c1C(=O)O)CCCC2)c1ccccc1	0%
72	COc1ccc([C@H]2c3cc(OC)c(OC)cc3C[C@@H](C)[C@@H]2C)cc1OC	-5%

Additional structures follow.
No.	smiles	VDR inh
73	COc1ccc(S(=O)(=O)N2CCCCCC2)cc1C(=O)N(C)CC(=O)Nc1ccccc1Br	-8%
74	Cc1cc(C)n(-c2nc3ccccc3s2)n1	18%
75	COc1ccccc1-c1ccc2ncnc(NC3CC3)c2c1	-1%
76	O=C(CCn1cccn1)Nc1ccc2c(c1)OCCO2	9%
77	Cc1cccc(NC(=S)NNC(=S)NCc2ccccc2)c1	89µM*
78	Cc1cc(C(=O)Nc2cccc(C)c2C)c2ccccc2n1	-19%
79	CN(C(=O)COC(=O)CNC(=O)c1sc2ccccc2c1Cl)C1CCS(=O)(=O)C1 (stereo not given)	1%
80	CCN(CC)S(=O)(=O)c1cccc(C(=O)OCC(=O)NCCN2C(=O)CSC2=O)c1	-1%
81	CC1CC(C)(C)NC(=S)N1CCC(=O)N1c2ccccc2CC1C (stereo not given)	16%
82	CN(C)CCCn1c(=O)n(C2CCCCC2)c(=O)c2c3c(sc21)CCCCC3	10%
83	CCOc1ccccc1C(=O)OCC(=O)Nc1cc(Cl)ccc1Oc1ccccc1	-10%
84	Cn1c(SCC(=O)O)nnc1-c1cccc(NC(=O)c2cccc3ccccc23)c1	14%
85	CCOC(=O)c1cccc(NC(=O)CC2C(=O)N(c3ccc(C)cc3)C(=O)N2Cc2cccc(OC)c2)c1 (stereo not given)	1%
86	Oc1ccccc1/C=N/n1c(-c2cccs2)n[nH]c1=S	-2%
87	O=C(Nc1ccccc1)c1ccccc1N=Cc1ccccc1O	-5%
88	O=C(CN(Cc1ccccc1)S(=O)(=O)c1ccccc1)N/N=C/c1ccc2c(c1)OCO2	11%

Looked up by structure from the list above:
No.	smiles	VDR inh
83	CCOc1ccccc1C(=O)OCC(=O)Nc1cc(Cl)ccc1Oc1ccccc1	-10%
87	O=C(Nc1ccccc1)c1ccccc1N=Cc1ccccc1O	-5%
81	CC1CC(C)(C)NC(=S)N1CCC(=O)N1c2ccccc2CC1C (stereo not given)	16%
88	O=C(CN(Cc1ccccc1)S(=O)(=O)c1ccccc1)N/N=C/c1ccc2c(c1)OCO2	11%
86	Oc1ccccc1/C=N/n1c(-c2cccs2)n[nH]c1=S	-2%

Other results
No.	smiles	VDR inh
89	CCc1ncc(C(O)c2cccc(OC)c2OC)n1C (stereo not given)	1%
90	O=C(NC1CCCCC1)Oc1cccc2ccccc12	-17%
91	CC(C)C(NC(=O)OC(C)(C)C)C(=O)NC(CCC(=O)OCc1ccccc1)C(N)=O (stereo not given)	-11%
92	COc1cc(NC(=O)c2ccccc2)ccc1NC(=O)Cc1ccccc1	0%
93	Cc1ccc(-c2nn(C)c(=O)c3ccccc23)cc1CNC(=O)CSc1nc2ccccc2o1	-3%
94	COc1ccc(C(=O)NC2CCCCCC2)cc1OC1CCN(C(C)=O)CC1	3%
95	COc1ccccc1C(=O)Nc1ccc(-c2cc(C(F)(F)F)nn2-c2ccccc2)cc1	7%
96	COc1ccc(C(=O)N(Cc2ccccc2)c2cccc(C)c2)c(OC)c1OC	2%
97	Cc1cc(O)c(C=O)c2c1C(=O)Oc1c(CO)c(O)c3c(c1O2)C(O)OC3=O (stereo not given)	18µM*
98	Clc1ccccc1-c1ncnc2ccc(Br)cc12	-12%
99	COc1ccccc1C(=O)Nc1cccc(OCc2cc(=O)n3c4c(sc3n2)CCCC4)c1	2%
100	CC(=O)N1CCOc2ccc(S(=O)(=O)NC[C@H]3O[C@@H](n4ccc(=O)[nH]c4=O)[C@H](O)[C@@H]3O)cc21	-18%
101	Cc1cc(SCC(=O)c2cccc([N+](=O)[O-])c2)nc(=O)[nH]1	?
102	COc1ccc([C@H]2CC(=O)C=C(c3ccc(CO)cc3)C2)cc1	?
103	Cc1ccc(-n2ncc3c(=O)n(CC(=O)N4CCN(C(=O)c5ccco5)CC4)cnc32)cc1	-20%
104	COc1ccc(NC(=S)N(CCCN2CCCC2)Cc2cccs2)cc1	-26%
105	COc1cc(OC)c(-c2nn3c(-c4n[nH]c5c4CCC5)nnc3s2)cc1OC	-5%&6%
106	CC(=O)Nc1ccc(SCC(c2ccccc2)N2CCN(C)CCC2=O)cc1 (stereo not given)	1%
107	CN1C(C(=O)NCc2cccc(Br)c2)CC2Cn3c(nc4cc(Cl)c(Cl)cc43)C21 (stereo not given)	5%
108	COc1ccc(C(=O)C(C)N(C(=O)c2ccc(Cl)cc2Cl)N2C(=O)C3C4C=CC(C4)C3C2=O)cc1 (stereo not given)	-1%
109	CN(CCC1CCOCC1)C(=O)C1CCC(=O)N(CCc2ccc(Cl)cc2)C1 (stereo not given)	4%
110	C=C[C@H]1[C@H](OC2OC(CO)C(O)C(O)C2O)OC=C(C(=O)OC)[C@H]1C[C@H]1CC(=O)C[C@H](CC(=O)CCc2ccc(O)cc2)O1 (stereo not given in full)	?
111	Cc1cc(C2=NNC(=NCc3ccccc3)SC2)c(C)n1-c1c(C)n(C)n(-c2ccccc2)c1=O	8%
112	CN(Cc1ccco1)S(=O)(=O)c1nnc(NC(=O)c2ccccc2Cl)s1	?
113	O=C(Nc1cnc(N2CCC(N3CCCCC3)CC2)c(C(=O)O)c1)c1ccc(Br)cc1	1%
114	CCCCN1Cc2c(nc3cc(-c4ccco4)[nH]n3c2=O)C1=O	-9%
115	COC(=O)c1sccc1-c1ccc(C(=O)Nc2ccccc2)o1	0%
116	Cc1c(NC(=O)c2cc(-n3cnnc3)ccc2Cl)cccc1-c1nc2ccccc2s1	10%
117	COc1ccc(N2CCN(C(=O)CSc3ncnc4scc(-c5ccc(C)cc5)c34)CC2)cc1	5%
118	O=C(COc1cc(O)c2c(=O)cc(-c3ccccc3)oc2c1)c1ccccc1	-9%
119	c1ccc2c(NC3CC3)nc(-c3ccoc3)nc2c1	?
120	COc1ccc(CN2C(=O)NC3(CCOc4ccccc43)C2=O)cc1F (stereo not given)	-1%
121	COc1ccc(C(=O)Nc2ccccc2-c2ccccc2)cc1Cl	-17%
122	Cc1cccnc1Nc1nc(-c2ccc(F)cc2)cs1	9%
